Screening results from PubChem BioAssay.
GLA inh pH 4.5: inhibitors of human alpha-galactosidase A at pH 4.5; P06280; purified enzyme, 4-MU-alpha-Gal fluorescence, pH 4.5; activity change, negative = inhibition, % at 105 µM; 230,000 tested, under 10 active; inconclusive = small, poorly fitted or top-dose-only inhibition, or a rising curve; inactive = flat fitted curve, though single readings scatter; no compound was filed as active;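 further: 0% = full activity with enzyme and -100% = basal without enzyme; dose as in the result columns while the protocol names 77 µM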
Target sequence (P06280 whole entry, looked up): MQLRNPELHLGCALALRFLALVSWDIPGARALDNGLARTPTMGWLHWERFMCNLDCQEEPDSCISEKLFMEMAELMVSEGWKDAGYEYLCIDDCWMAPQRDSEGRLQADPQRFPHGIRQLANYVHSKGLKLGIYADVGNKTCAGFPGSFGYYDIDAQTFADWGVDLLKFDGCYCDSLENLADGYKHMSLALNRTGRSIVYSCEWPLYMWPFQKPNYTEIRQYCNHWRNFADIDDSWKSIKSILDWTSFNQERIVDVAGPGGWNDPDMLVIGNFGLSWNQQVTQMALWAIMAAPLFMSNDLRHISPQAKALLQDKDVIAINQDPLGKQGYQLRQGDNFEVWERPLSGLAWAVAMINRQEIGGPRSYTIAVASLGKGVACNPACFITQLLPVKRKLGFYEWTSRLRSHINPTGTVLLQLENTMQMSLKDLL
Rango dissoc inh: inhibition of RanGTP-driven Rango-importin beta dissociation | Biochemical FRET Rango-importin beta, RanGTP-induced dissociation | Potency, µM (series often up to 46.1 µM), without a hit: at the top dose activity change, negative = inhibition | O95149+P62826 | 340,000 tested, 0.071% active; active means falling FRET ratio curve, often poorly fitted, with flat reads before Ran was added; inconclusive means other falling curves, or compound fluorescence or quenching; inactive means flat or rising ratio curve;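 further: potency means the concentration at half of the fitted maximal effect; % of control where 0% means no effect; nearly all actives have a fitted effect of over 45% in size; -100% = wells without RanGTP and RCC1; the record marks most hits as doubtful in a second field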
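Compounds sat 5 min at room temperature with 0.1 uM Rango biosensor plus 0.25 uM importin beta, then FRET pre-read. RanGTP-RCC1 (0.6 uM Ran, 2mM GTP, 0.2 uM RCC1) added for 45 min, and the CFP/YFP post-read measured blocked complex dissociation.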
miR-21 FLuc: miR-21 reporter, rising signal; Potency, µM (highest dose often 38.3 µM), without a hit: at the highest dose reporter change, positive = more light; 340,000 tested, under 10 active; AID 2288; HeLa miR-21 FLuc reporter, luciferase, 48 h; active = well fitted rising curve with a large enough effect; inconclusive = small, poorly fitted or top-dose-only effect; inactive = no such curve, though single readings can be large or run the other way;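 further: % of control where 0% means no effect; miR-21 action dims this reporter so a rising signal means less miR-21 action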
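Luminescence from a firefly luciferase reporter carrying a miR-21 binding site downstream, stably expressed under a CMV promoter in HeLa cells that make miR-21 endogenously, reports miRNA modulation after 48 h compound exposure up to approximately 40uM final.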
Rango complex inh: inhibitors of Rango-importin beta complex formation; Q14974; Rango CFP/YFP FRET sensor + importin beta, 45 min; Potency, µM (doses to about 92.2 µM), without a hit: top-dose inhibition of complex formation; 340,000 tested, 0.031% active; AID 540263; active = rising FRET ratio curve, often small or poorly fitted; inconclusive = mostly compound fluorescence or quenching in the first reads; inactive = flat curves in all reads;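 further: potency means the concentration at half of the fitted maximal effect; 0% = DMSO wells and 100% = buffer wells lacking importin beta; nearly all actives have a fitted effect of over 15% in size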
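FRET biosensor Rango (snurportin 1 IBB between N-terminal EYFP and C-terminal Cerulean), 50 nM in PBS/1 mM DTT/0.02% Tween-20/0.1% BSA, preincubated 5 min RT with compound; 0.125 microM importin beta added, 45 min RT, CFP/YFP FRET ratio read.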
Active calls of the source: *; ? = inconclusive; · = not tested or not shown; & = joins results of further samples; [ ] = another dose, or the depositor's remark. Some of the compounds tested; rates above refer to the full screens.

SMILES | GLA inh pH 4.5 | Rango dissoc inh | miR-21 FLuc | Rango complex inh
CN1CCN(S(=O)(=O)c2cccc(S(=O)(=O)c3ccc(Cl)cc3)c2)CC1 | 1 | 7% | 6% | -0.6%
CC(=O)c1cccc(CN2CCC(n3nccc3NC(=O)CCOc3ccccc3)CC2)c1 | · | 16% | 0% | -0.2%
COc1cc(C2/C(=C(\O)c3ccc4c(c3)CC(C)O4)C(=O)C(=O)N2c2nnc(C)s2)cc(OC)c1OC (stereo unspecified) | · | -23% | 0% | -0.6%
O=C(Cn1c(COc2ccccc2)nc2ccccc21)Nc1cccc(Cl)c1 | 2 | -8% | -15% | -0.5%
CC(C)Cc1nc(N2CCN(C(=O)c3ccco3)CC2)c(C#N)c2c1CCC2 | 2 | -19% | -11% | ?
CCCCn1c(N)c(N(CCOC)C(=O)COC(=O)CCOc2ccccc2)c(=O)[nH]c1=O | · | -7% | · | -1.1%
Cc1ccccc1Nc1nc(N)nc(COC(=O)/C=C/c2ccco2)n1 | 7 | 8% | -8% | 0.7%
O=C(c1cn(-c2ccccc2)nc1-c1cccnc1)N1CCCC(C(F)(F)F)C1 (stereo unspecified) | · | 0% | · | -0.7%
COc1ccccc1C1CCN(Cc2ccc3ccccc3c2)CC1 | · | -10% | -4% | 2.7%
COCCn1c(=O)[nH]c2cc(C(=O)NC(C)C)ccc2c1=O | ? | 1% | 5% | 4.5%
O=C(O)COCC(=O)N1CCCN(c2ccc(C(F)(F)F)cn2)CC1 | · | 0% | -5% | 2.5%
CCOC(=O)Cc1csc(NC(=O)CCCCCN2C(=O)c3ccccc3C2=O)n1 | 1 | 2% | 0% | 1.1%
CCOc1ccc(CNCc2ccccc2Cl)cc1 | -2 | ? | -34% | 0.2%
O=C(Nc1ccc(Cl)cc1Cl)c1ccc2ncsc2c1 | · | -13% | -65% | 0.4%
CCN1C(=O)[C@H]2[C@@H](c3ccc(-c4ccc(OC)cc4)c(OC)c3)N[C@@](C)(C(=O)OC)[C@H]2C1=O | · | 14% | · | 3.7%
COC(=O)c1cc([N+](=O)[O-])c(-n2ccnc2)c([N+](=O)[O-])c1 | -8 | 4% | -3% | 2.8%
COc1ccc(N2CCC(CNC(=S)Nc3c(C)cc(C)cc3C)C2)cc1 (stereo unspecified) | -2 | 12% | 9% | 2.7%
COC(=O)CCC(=O)COc1ccccc1C#N | 2 | 9% | -32% | 0.3%
O=C(CCc1nc2ccccc2[nH]1)N1CCc2ccccc2C1 | 8 | 17% | -6% | ?
COc1cc2c(cc1NS(=O)(=O)N1CCCC1)oc1ccccc12 | -4 | -7% | -2% | 5.7%
CCOc1ccc(-c2cc(N)n(S(=O)(=O)c3ccc(OC)cc3)n2)cc1 | -7 | -7% | -3% | ?
O=C(Nc1ccc(F)cc1)C1CCN(c2ncnc3c2nc2n3CCCCC2)CC1 | · | 0% | 0% | -1.2%
CCOC(=O)n1c(=O)n(Cc2ccccc2)c2ccccc21 | 0 | 23% | 0% | 8.5%
Cc1cccc(C(=O)OCC(=O)NCCCc2ccccc2)c1 | 11 | 3% | -8% | ?
COc1ccccc1OCCCCNC(C)(C)C | -4 | 15% | 1% | 0.5%
COc1cccc(/C=C2\SC(=S)N(NC(=O)c3ccncc3)C2=O)c1 | 8 | 53% | 2% | 0.8%
CC/C(=C/c1sc2ccccc2[n+]1CC)SC | -5 | -4% | -9% | -0.7%
CCN1CCN(C(=O)CCS(=O)(=O)c2cc3c(cc2Cl)NC(=O)CO3)CC1 | · | -16% | -2% | -0.2%
COc1ccc(S(=O)(=O)Nc2ccc3c(c2)CCC3)cc1 | 0 | -7% | -1% | 1.4%
COc1ccc(NC(=O)Nc2cc(F)ccc2C)cc1 | 10 | -25% | -3% | -2.6%
CC(C)(C)[C@H]1C=C(C(=O)Nc2ccccc2)O[C@@H](OCCCCO)C1 | · | -2% | · | -1.0%
O=C1C=C(NCc2ccco2)C2(CCCCC2)O1 | -3 | -3% | 4% | -0.1%
Nn1c(-c2ccccc2)nc2ccccc2c1=O | -7 | -5% | -4% | ?
O=C(Nc1ncn[nH]1)c1ccc(Cl)c(S(=O)(=O)Nc2ccc(Cl)cc2)c1 | -3 | -1% | 0% | 0.3%
O=C(C(NS(=O)(=O)c1cccs1)c1ccccc1)N1CCN(c2ccccc2F)CC1 (stereo unspecified) | 2 | 17% | 6% | 4.3%
Cc1[nH]c(=O)[nH]c(=O)c1CSc1nnc(CCCCCNC(=O)OC(C)(C)C)o1 | 3 | 9% | -1% | -3.0%
Nc1ncc(Br)cc1S(=O)(=O)NC1CCCCC1 | · | 21% | -7% | -0.4%
NC(=O)COc1ccc(C(=O)/C=C2/C(=O)Nc3ccccc32)cc1 | · | -15% | ? | 4.3%
Cc1ccc(S(=O)(=O)NCCCCCC(=O)Nc2cccc(C)c2)cc1 | 4 | -18% | -1% | -3.7%
CCOC(=O)c1ccc(NC(=S)N2CCCC(C(=O)OCC)C2)cc1 (stereo unspecified) | 4 | ? | -5% | 0.1%
Cc1cccc(CSc2ccc3nnc(-c4cccs4)n3n2)c1 | 6 | -6% | -2% | -0.4%
Cc1cc(C(=O)CSc2nc3ccccc3[nH]2)c(C)n1C | -2 | -1% | -25% | -0.2%
Cc1ccc(NC(=O)C2=C(C(=O)O)CCCC2)cc1Br | · | -8% | -5% | -2.0%
CSc1ccccc1C(=O)Nc1cccc([N+](=O)[O-])c1 | -4 | 6% | -5% | -2.8%
CC(C)NC(=O)CN(Cc1ccccc1)S(=O)(=O)c1ccccc1 | -11 | 24% | -1% | -1.4%
CC(C)(C)c1ccc(OCC(O)CS(=O)(=O)c2ccccn2)cc1 (stereo unspecified) | -1 | 1% | -31% | -1.8%
O=c1oc2ccccc2cc1-c1csc(NN=C2CCCC2)n1 | -10 | ? | -52% | ?
Cc1cc(C)c(S(=O)(=O)N2CCN(C(=O)c3c(C)noc3C)CC2)c(C)c1 | · | 23% | · | ?
COCCCNC(=S)NNC(=O)c1cc(C2CC2)nc2ccccc12 | · | 2% | 0% | -2.8%
COc1ccccc1C(=O)NCCC(=O)Nc1ccc(S(=O)(=O)N2CC(C)CC(C)C2)cc1 (stereo unspecified) | · | -4% | · | -2.5%
(next part)
SMILES | GLA inh pH 4.5 | Rango dissoc inh | miR-21 FLuc | Rango complex inh
O=C(O)c1ccc(-c2nnc(-c3cccc(Br)c3)o2)cc1 | · | -22% | -27% | -2.1%
Cc1c(CC(=O)N[C@@H](C)C(=O)O)c(=O)oc2cc3c(cc12)CCC(C)(C)O3 | · | 2% | -5% | 1.1%
CC(C)OCCCN(CC(O)c1ccccc1)CC(O)c1ccccc1 (stereo unspecified) | -12 | 6% | -1% | -1.4%
Cn1c(N)c(C(=O)COC(=O)CNS(=O)(=O)c2cccc(Cl)c2)c(=O)n(C)c1=O | -28 | 8% | -4% | 0.9%
Cc1cc(C(=O)N/N=C/c2ccc(-c3cccc(Cl)c3Cl)o2)n[nH]1 | 1 | 1% | -8% | 4.0%
COc1ccc(-n2c(Cc3cc(=O)[nH]c(=O)[nH]3)nnc2SCC(=O)Nc2ccccc2)cc1 | -3 | -5% | -1% | 4.5%
COc1ccc(CN2CCCCCC2)cc1 | · | 21% | 0% | -0.9%
CCCn1nc(Oc2nc(NC(C)C)nc(N(C)C)n2)ccc1=O | 11 | -21% | 12% | 4.5%
CN1OC[C@@H]2CN(Cc3ccc(Cl)cc3)[C@H](c3cccc(Br)c3)C[C@@H]21 | · | 1% | · | -2.5%
Cc1cc2n(n1)C(c1ccc3c(c1)OCO3)Nc1c(C)cccc1-2 (stereo unspecified) | -11 | -7% | 2% | 0.7%
Cc1cc(C(=O)COC(=O)C23CC4CC(CC(O)(C4)C2)C3)c(C)n1-c1c(C)n(C)n(-c2ccccc2)c1=O | -14 | -14% | 0% | 0.7%
O=C(NCCc1c[nH]c2ccccc12)C(=O)NCC(c1ccco1)N1CCN(c2ccc(F)cc2)CC1 (stereo unspecified) | -7 | -11% | 2% | -3.5%
COc1ccc2c(c1)CCc1c(C(=O)NCc3ccco3)noc1-2 | -6 | -1% | -36% | -2.5%
O=C(Cc1ccccc1)NCCCNC(=O)Cc1ccccc1 | · | 0% | · | -0.8%
CCOc1cc(C)c(S(=O)(=O)NC2CCCCC2)cc1C | -11 | 10% | -3% | 5.0%
COCCN1Cc2cc3cc(C)ccc3nc2SC1=Nc1cccc(OC)c1 | -3 | -8% | 1% | 3.0%
COc1cccc(C(=O)NCC2(c3ccc(OC)c(OC)c3)CCCC2)c1 | · | 15% | -1% | 1.8%
O=C(NN1C(=O)c2ccccc2NC1c1ccccc1OCc1ccccc1)c1ccncc1 (stereo unspecified) | 2 | 32% | -10% | 4.2%
O=C1NC(=Nc2ccccc2Cl)SC1(CO)CO | · | 4% | 0% | 0.2%
Nc1nc(Sc2ccc(C(F)(F)F)cc2[N+](=O)[O-])n[nH]1 | 11 | -9% | 1% | -0.4%
CCCNC(=O)C1CCN(S(=O)(=O)c2cccc3nonc23)CC1 | -2[21.1 µM] | 8% | 0% | 3.3%
Cc1cc(C)c2cc(CN(CCN3CCCC3)C(=O)Nc3ccc(F)cc3)c(=O)[nH]c2c1 | -23 | 3% | -15% | 0.4%
CCc1nc(SCC(=O)O)c(C#N)c2c1CCCC2 | 3 | 2% | 0% | -3.2%
CC(=O)N1CCc2cc(S(=O)(=O)NCCC(=O)NC3CCCc4ccccc43)ccc21 (stereo unspecified) | -1 | -2% | -1% | 2.6%
O=C(Nc1nc(-c2ccc(F)c(F)c2)cs1)c1ccc(OCC2CCCO2)cc1 (stereo unspecified) | 1 | -14% | -1% | 1.4%
CCn1c(CNS(=O)(=O)c2ccc(Br)cc2)n[nH]c1=S | · | -5% | -3% | -1.8%
COc1ccc(NC(=O)C23CCC(C)(C(=O)C2)C3(C)C)cc1 (stereo unspecified) | 0 | 2% | -14% | -0.7%
COc1ccc(C(=O)OCC(=O)NC2CC2)cc1S(=O)(=O)N1CCOCC1 | -3 | -15% | -1% | -1.0%
O=C(NNc1nc(N2CCOCC2)nc(N2CCOCC2)n1)Nc1ccc(Cl)cc1 | -16 | · | -4% | ·
COc1ccccc1NC(=O)C1CCN(c2ncnc3c2nc2n3CCCCC2)CC1 | · | 6% | 0%&-2% | 1.6%

Random excerpt: 5 entries already listed.
SMILES | GLA inh pH 4.5 | Rango dissoc inh | miR-21 FLuc | Rango complex inh
COc1ccccc1NC(=O)C1CCN(c2ncnc3c2nc2n3CCCCC2)CC1 | · | 6% | 0%&-2% | 1.6%
O=C(NNc1nc(N2CCOCC2)nc(N2CCOCC2)n1)Nc1ccc(Cl)cc1 | -16 | · | -4% | ·
CCn1c(CNS(=O)(=O)c2ccc(Br)cc2)n[nH]c1=S | · | -5% | -3% | -1.8%
CCc1nc(SCC(=O)O)c(C#N)c2c1CCCC2 | 3 | 2% | 0% | -3.2%
CCCNC(=O)C1CCN(S(=O)(=O)c2cccc3nonc23)CC1 | -2[21.1 µM] | 8% | 0% | 3.3%

(continued)
SMILES | GLA inh pH 4.5 | Rango dissoc inh | miR-21 FLuc | Rango complex inh
Cc1ccc(-c2csc3ncnc(Nc4ccc(C(=O)O)cc4)c23)cc1 | 1 | -3% | -15%&-9% | 6.3%
O=[N+]([O-])c1ccc(C[n+]2cccc3ccccc32)cc1 | 5 | -3% | 5% | 0.4%
COc1ccc(-c2cc(-c3ccccc3)nc(-c3ccc4c(c3)NC(=O)CO4)c2)cc1 | -2 | 6% | -1% | -1.3%
CC1CC(C)CN(C(=O)Cn2c(=O)n(CCCCC(=O)NC3CCCC3)c(=O)c3ccccc32)C1 (stereo unspecified) | -7 | 2% | -6% | 1.4%
O=C1/C(=C/c2ccc(F)cc2)SC(=S)N1N1CCOCC1 | 4 | 1% | -3% | 1.5%
COc1ccccc1CN(CC(=O)NCc1ccc(F)cc1)C(=O)c1csnn1 | · | 5% | 7% | -3.2%
O=C(Nc1cccc2ccccc12)N1CC=C(c2ccccc2)CC1 | -6 | -2% | -6% | -5.1%
Cc1cccc(Nc2nc(N)c([N+](=O)[O-])c(N3CCC(C)CC3)n2)c1 | ? | -4% | -5% | -4.1%
CNC(=O)c1ccsc1NC(=O)c1sc2ccccc2c1Cl | -9 | 8% | -51% | ?
